# KCNQ2 enhance – enhances the rat KCNQ2 potassium channel; B-score at 10 µM; hit rate 0.54% among 310,000; O88943; CHO-K1 KCNQ2, FluxOR thallium flux fluorescence; active compounds read high; AID 2239;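 active = fluorescence ratio B-score at least 3 SD of library B-scores, with initial fluorescence B-score within 3 SD, cut at about 5.3 in these data; same plate scores as AID 2156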;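 note: B-score of peak minus minimum over baseline fluorescence ratio after K+ and Tl+ stimulus; positive B-score means potentiation of KCNQ2 with more thallium influx and brighter signal; only the inactives scoring about 0 or higher are listed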
# Target sequence (O88943 whole entry, looked up): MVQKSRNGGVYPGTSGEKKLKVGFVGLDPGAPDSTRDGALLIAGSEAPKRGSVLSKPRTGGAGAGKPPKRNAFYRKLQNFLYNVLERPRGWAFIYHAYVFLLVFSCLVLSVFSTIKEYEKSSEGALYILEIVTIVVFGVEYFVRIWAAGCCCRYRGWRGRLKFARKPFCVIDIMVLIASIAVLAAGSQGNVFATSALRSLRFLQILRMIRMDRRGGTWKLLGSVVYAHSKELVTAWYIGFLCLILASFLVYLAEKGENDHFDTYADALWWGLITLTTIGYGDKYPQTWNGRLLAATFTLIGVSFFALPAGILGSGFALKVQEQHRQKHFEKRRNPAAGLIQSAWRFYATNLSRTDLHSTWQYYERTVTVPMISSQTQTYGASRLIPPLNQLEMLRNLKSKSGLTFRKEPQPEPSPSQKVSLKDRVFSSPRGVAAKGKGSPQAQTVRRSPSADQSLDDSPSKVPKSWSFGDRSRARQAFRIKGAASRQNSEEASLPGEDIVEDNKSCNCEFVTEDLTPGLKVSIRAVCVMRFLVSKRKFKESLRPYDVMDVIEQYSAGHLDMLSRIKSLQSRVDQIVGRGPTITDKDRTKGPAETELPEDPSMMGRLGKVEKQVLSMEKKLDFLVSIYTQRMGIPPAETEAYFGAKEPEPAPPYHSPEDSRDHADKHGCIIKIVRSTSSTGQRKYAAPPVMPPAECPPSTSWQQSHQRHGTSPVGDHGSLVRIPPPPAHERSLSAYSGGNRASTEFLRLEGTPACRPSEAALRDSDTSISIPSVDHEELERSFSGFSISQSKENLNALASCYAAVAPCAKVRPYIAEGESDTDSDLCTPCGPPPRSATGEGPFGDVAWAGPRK
# KCNQ2 enhance baseline – second read-out of KCNQ2 enhance, no call of its own (marks repeat the call); B-score; compound at 10 µM; measured here: initial fluorescence intensity artifact check;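 brightness before thallium and not channel activity; 0 = typical well and far values either way flag optical interference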
# Numbers without * were called inactive.
SMILES,KCNQ2 enhance,KCNQ2 enhance baseline
c1cc2c(nn1)CCc1nonc1-2,0.05,0.64
CC1CCN(c2ccc([N+](=O)[O-])cc2C(=O)N2CCOCC2)CC1,0.39,-1.08
O=C(Nc1ccc(N2CCN(C(=O)c3cccs3)CC2)c(Cl)c1)c1ccco1,1.87,0.2
COc1ccccc1-c1nnc(SCC(=O)O)n1-c1ccc(C)cc1,0.79,-0.94
CN(Cc1ccco1)C(=O)c1ccc(CNS(=O)(=O)c2ccc3c(c2)C(C)(C)C(=O)N3C)cc1,0.67,-0.1
Fc1ccc(OCc2nnc(SCCN3CCOCC3)o2)cc1,0.53,0.02
N/C(=N\OC(=O)c1cccc(F)c1)c1ccccc1,0.16,-0.87
Cc1cc(Cl)c(OCCCSc2nc(C)cc(=O)[nH]2)c(Br)c1,0.84,0.5
COCCNC(=O)CSc1nc2ccccc2c(=O)n1CCC(=O)NCCc1ccc(OC)c(OC)c1,0.42,-1.53
N#Cc1ccsc1NC(=O)CN1C(=O)NC2(CCCC2)C1=O,0.04,0.95
CCOC(=O)c1sc(NC(=O)c2ccccc2)cc1C,1.97,0.13
CCCCCCOc1ccc(/C(N)=N/O)cc1,1.65,-0.9
Cc1ccc(OCCC(=O)Nc2ccc(F)c(F)c2)cc1,2.57,-1
NC(=O)c1ccccc1NC(=O)CS(=O)(=O)Cc1ccccc1,1.01,-1.63
CC(C)Cn1c(N)c(C(=O)CSc2ccc3c(c2)OCCO3)c(=O)n(C)c1=O,0.02,2.04
COc1cccc(NC(=O)CSc2nc3ccsc3c(=O)n2-c2ccc(C(=O)O)cc2)c1,0.93,-0.03
S=c1[nH]cnc2sc(Nc3ccccc3)nc12,0.38,1.73
CCOC(=O)c1c(C)n(C)c2c(C)cc(O)c(OC(C)=O)c12,1.41,0.85
CCOC(=O)N1CCN(S(=O)(=O)CCNC(=O)c2ccc(OC)cc2)CC1,0.1,-0.3
COc1ccc(Cl)cc1C(=O)NNC(=O)CSc1nnc2ccccn12,0.97,-0.09
CCOC(=O)c1cnc(SCC)[nH]c1=O,0.43,1.76
Cn1c(=O)c(=O)n(C)c2cc(S(=O)(=O)N3CCOCC3)ccc21,1.33,0.08
Fc1ccc(C2c3cccn3CCN2C(=S)Nc2cccc(Br)c2)cc1 (centres undefined),0.19,0.4
COc1ccc(Oc2c(C)nc(SCC(=O)c3ccc(Cl)cc3)[nH]c2=O)cc1,2.83,-2.29
Cc1ccc(CS(=O)(=O)c2nsc(C)c2C#N)cc1,0.39,1.06
Cc1oc2cc3oc(=O)c(CC(=O)O)c(C)c3cc2c1-c1ccccc1,1.32,-0.14
CCC1CCCCN1C(=O)CSc1nc(N)c(NC(=O)c2ccco2)c(=O)[nH]1 (centres undefined),1.08,0.51
Cc1c(C)c(C)c2[nH]c(-c3ccc4c(c3)OCO4)nc2c1C,0.81,0.17
O=C1CSC(c2ccccc2)N1Cc1ccccn1 (centres undefined),0.04,-1.47
CC(O)CNCCOc1ccccc1OCc1ccccc1 (centres undefined),0.7,0.32

# A second format for some results above.
Molecule	KCNQ2 enhance	KCNQ2 enhance baseline
CN(Cc1ccco1)C(=O)c1ccc(CNS(=O)(=O)c2ccc3c(c2)C(C)(C)C(=O)N3C)cc1	0.67	-0.1
CC(O)CNCCOc1ccccc1OCc1ccccc1 (centres undefined)	0.7	0.32
NC(=O)c1ccccc1NC(=O)CS(=O)(=O)Cc1ccccc1	1.01	-1.63
CCOC(=O)c1c(C)n(C)c2c(C)cc(O)c(OC(C)=O)c12	1.41	0.85
COc1ccccc1-c1nnc(SCC(=O)O)n1-c1ccc(C)cc1	0.79	-0.94
Cc1c(C)c(C)c2[nH]c(-c3ccc4c(c3)OCO4)nc2c1C	0.81	0.17
Cc1oc2cc3oc(=O)c(CC(=O)O)c(C)c3cc2c1-c1ccccc1	1.32	-0.14

# Other records follow.
SMILES,KCNQ2 enhance,KCNQ2 enhance baseline
CCCCCC(=O)Nc1ccc(-c2cn3cccnc3n2)cc1,0.1,0.57
CCOc1ccccc1C(=O)OCC(=O)Nc1ccc(N2CCCCC2)cc1,1.08,-0.01
Cc1ccc(S(=O)(=O)N2CCN(C(=O)COC(=O)CCOc3ccccc3C)CC2)cc1,0.53,-0.16
C/[N+]([O-])=C\c1coc2ccccc2c1=O,0.48,0.68
COC(=O)c1cc(C(=O)OC)[nH]n1,0.42,0.51
COc1ccc(C(C(=O)NC(C)(C)C)N(C(=O)CCC(=O)Nc2cc(C)on2)c2cc(C)cc(C)c2)cc1 (centres undefined),1.09,0.75
CNC(=O)c1c(O)c2cccc3c2n(c1=O)CCC3,0.51,-0.22
COc1ccc(NS(=O)(=O)c2cccc(C(=O)NNC(=O)c3cccc(NC(C)=O)c3)c2)cc1,0.01,0.93
Cc1cccc(N2C(=O)CC(SC(N)=Nc3ccccc3)C2=O)c1 (centres undefined),1.16,-1.68
CCCCN(C)C(=O)c1cc2cc3ccc(OC)cc3nc2s1,0.77,1.02
COc1cccc(C(=O)C2CCCN(C(=O)c3ccccc3Cl)C2)c1 (centres undefined),0.74,1.26
Cc1ccc(-n2ccnc2SCC(=O)O)c(C)c1,0.62,1.12
CC1CCN(S(=O)(=O)c2ccc(C(=O)Nc3ncccc3O)cc2)CC1,1.43,-0.02
c1ccc(CNc2nc(-c3ccccn3)nc3ccccc23)cc1,0.12,-0.03
N#C/C(=C1/CCCCCN1)c1nc2ccccc2[nH]1,0.11,0.19
C=CCNC(=O)c1ccc(CSc2nc3ccccc3s2)cc1,1.55,-2.03
Cc1ccc(C(=O)N/C(=C/c2ccco2)C(=O)N2CCCCC2)cc1,1.68,-0.76
Fc1ccccc1N=C1Nc2cccc3cccc1c23,0.95,-1.32
CCCc1n(CC(O)COCC2CC=CCC2)c2ccccc2[n+]1C (centres undefined),0.14,-0.62
CCCCCN(C(=O)CCC(=O)OCC(=O)Nc1ccc(C)cc1F)c1c(N)n(CCCC)c(=O)[nH]c1=O,2.44,-0.46
O=[N+]([O-])c1cc(C(F)(F)F)ccc1N1CCN(S(=O)(=O)c2ccc3c(c2)CCCC3)CC1,0.51,0.01
COc1cccc(OC)c1C(=O)N1CCN(Cc2ccncc2)CC1,0.68,-1.36
Cc1ccc(NCC(=O)N/N=C/c2ccc(C(=O)O)cc2)cc1,1,0.92
Cc1nnc(OC(C)C)c2nn(-c3ccccc3F)c(C)c12,0.34,0.54
COc1cccc(C2CC3(CC(C)(C)NC(=S)N3)Oc3cc(O)ccc32)c1 (centres undefined),1.64,-0.37
Cc1cc2cc(CNC(=S)Nc3ccc(OC(F)F)cc3)ccc2n1C,2.72,0.2
O=S1(=O)NC(=NCCc2ccccn2)c2ccccc21,0.62,2.14
O=C(C1CCC(=O)N(C2CCCC2)C1)N1CCC(Oc2ccccc2Cl)CC1 (centres undefined),2.46,-0.09
O=C(OCCOCn1cc(Br)c(=O)[nH]c1=O)c1ccccc1,0.35,-0.83
CC(C)(C)C1CCc2onc(C(=O)N3CCOCC3)c2C1 (centres undefined),0.68,-0.82
Cc1cc(NC(=O)CSC2=Nc3ccccc3C3=NC(Cc4ccccc4)C(=O)N23)n[nH]1 (centres undefined),0.13,-0.55
O=C(CCNC(=O)c1ccco1)NCc1ccccc1,0.38,-1.29
COC(=O)c1ccc(CSc2nnc(C)n2N)o1,1.65,0.04
COc1cccc(N2CC(NS(=O)(=O)c3cccs3)CC2=O)c1 (centres undefined),2.06,-1.95
COCCNC(=O)C(=O)N/N=C(\C)CC(=O)Nc1ccc2c(c1)OCO2,0.08,2.47
C=CCn1c(=NC(=O)CN2C(=O)CCC2=O)sc2cc(S(N)(=O)=O)ccc21,0.48,-0.04
CC(=O)N1CCN(C(=O)c2ccc(NS(=O)(=O)c3ccc4c(c3)OCCO4)cc2)CC1,1.31,0.17
Cc1cc(C)cc(NC(=O)CCc2c(C)nn(-c3ccc(N4CCOCC4)nn3)c2C)c1,0.66,1.14
COc1ccccc1Cn1c(=S)[nH]c2cc(C(=O)N3CCN(C)CC3)ccc2c1=O,0.2,-0.26
O=C(NNC(=O)c1ccco1)Nc1ccccc1,0.01,-0.05
CCC(C)NC(=O)c1ccc2c(c1)S(=O)(=O)c1ccccc1C2=O (centres undefined),0.15,-0.43
Cc1ccc(OCC(=O)NNC(=O)C2CCN(c3ncccn3)CC2)cc1,2.63,-1.01
Cc1noc(/C=C/c2ccco2)c1S(=O)(=O)N1CCC(C(=O)NC(C)c2ccccc2)CC1 (centres undefined),4.53,1.24
CCc1nnc(NC(=O)CCC(=O)NC2CC2)s1,0.5,0.13
CCOC(=O)c1c(NC(=O)COc2ncnc3sccc23)sc2c1CCC2,0.51,-0.4

# Part of the list above, set out differently:
# The line under a structure holds: KCNQ2 enhance, KCNQ2 enhance baseline
> C=CCn1c(=NC(=O)CN2C(=O)CCC2=O)sc2cc(S(N)(=O)=O)ccc21
 : 0.48, -0.04
> C/[N+]([O-])=C\c1coc2ccccc2c1=O
 : 0.48, 0.68
> NC(=O)c1ccccc1NC(=O)CS(=O)(=O)Cc1ccccc1
 : 1.01, -1.63
> COc1ccccc1-c1nnc(SCC(=O)O)n1-c1ccc(C)cc1
 : 0.79, -0.94
> CCCCCC(=O)Nc1ccc(-c2cn3cccnc3n2)cc1
 : 0.1, 0.57

# Next part:
SMILES,KCNQ2 enhance,KCNQ2 enhance baseline
O=C(CNC1CCCCC1)Nc1cccc([N+](=O)[O-])c1,1.53,-0.41
CCn1c(SCC(=O)Nc2ccccc2N2CCOCC2)nnc1-c1ccccc1O,1.29,0.62
COC(=O)CCC(=O)Nc1ccccc1C(=O)Nc1ccccc1,0.05,0.55
C/C(=N\O)c1ccc2c3ccccc3n(C)c2c1,2.08,-0.54
Cc1cc2nnc(SCC(=O)NCc3cccs3)n2c(N)n1,0.11,0.48
CC(Sc1nc2nn(-c3ccccc3)c(=O)c-2c2n1CCCCC2)C(N)=O (centres undefined),0.28,1.34
O=C(Nc1ccccc1O)c1ccc2c(c1)C(=O)N(c1ccccc1)C2=O,1.8,-0.26
CCOC(=O)c1c(C)[nH]c(C(=O)N/N=C/c2cc([N+](=O)[O-])ccc2O)c1C,2.2,-0.05
O=C(Nc1ncc(Cc2ccc(C(F)(F)F)cc2)s1)c1ccc(-c2cccc([N+](=O)[O-])c2)o1,2.09,0.23
COc1cccc(-n2c(SCC#N)nnc2-c2cnccn2)c1,0.14,-2.19
CCOC(=O)c1cc2c(nc1NC(=S)Nc1ccccc1)CC(C)(CC)OC2 (centres undefined),1.12,-0.32
O=c1ccc2ccccc2o1,0.87,0.12
COc1ccc2c(CCNC(=O)c3ccc([N+](=O)[O-])cc3)c[nH]c2c1,0.97,1.43
Cc1cccc(OCC2Cn3c(nc4c3c(=O)[nH]c(=O)n4C)O2)c1 (centres undefined),1.29,-1.9
O=C(CNC(=O)c1ccccc1)N/N=C/c1cn[nH]c1-c1ccccc1,1.49,0.19
CC1CCN(CCOCCSc2ccc(Cl)cc2)CC1,0.22,1.68
CC(C)(C)c1ccc(CCC2OCC(C[N+]3(C)CCOCC3)O2)cc1 (centres undefined),0.29,-0.39
O=C1c2ccccc2NC(c2ccco2)N1/N=C/c1ccco1 (centres undefined),0.88,-0.39
CCOc1ccc([N+](=O)[O-])cc1CNC1CCCCCCC1,0.92,2.03
CCn1cc(CN2CCCC(CNS(=O)(=O)c3cccc4cccnc34)C2)cn1 (centres undefined),0.34,0.7
CCC(C)(C)n1nnnc1CN(Cc1ccco1)Cc1cc2cc3c(cc2[nH]c1=O)OCO3,3.34,1.45
COC(=O)c1ccccc1NC(=O)c1cc(-c2ccc(O)cc2)on1,1.22,0.63
CCc1ccc(-n2c(=O)c3ccc(C(=O)NCCc4ccccc4)cc3n(CC(N)=O)c2=O)cc1,0.17,0.07
COc1ccc(C2/C(=C(/O)c3ccc4c(c3)CC(C)O4)C(=O)C(=O)N2CCCN2CCOCC2)cc1OC (centres undefined),0.7,1.01
CCC(=O)N1CCN(c2cc(N3CCCC3)c(F)cc2[N+](=O)[O-])CC1,0.05,0.55
Cc1cc(C)c(NC(=O)CSc2nc3ncc(Br)cc3[nH]2)c(C)c1,0.31,0.2
COc1ccc(N/C=C(\C(C)=O)c2ccc(OC)c(OC)c2)cc1OC,0.52,0.62
COc1ccc(C(C)C)cc1S(=O)(=O)Nc1ccncc1,0.01,1.48
CCOc1ccccc1NC(=O)C1CCN(C(=O)c2cccs2)CC1,0.02,-1.97
CCCCNC(=O)c1ccc(CNc2c(N3CCC(C(=O)OCC)CC3)c(=O)c2=O)cc1,0.04,-0.01
Cc1ccc(OCC(=O)Nc2ccc(O)c(C(=O)O)c2)cc1C,0.66,-0.01
O=C(COC(=O)c1cc([N+](=O)[O-])ccc1NCCO)Nc1ccc2c(c1)OCO2,2,-0.32
CC(=O)/C(N=Nc1ccc(OC(F)(F)F)cc1)=C(\C)O,0.7,-0.49
CC1CCc2cccc3c(O)cc(=O)n1c23 (centres undefined),1.7,-0.45
N#CCSCC(=O)Nc1ccc(Br)cc1,0.2,-0.21
CCNC(=O)C(=O)NCc1ccncc1,0.99,1.93
O=C(NCCC1CCCC1)c1cccs1,1.07,0.16
CCCn1nnnc1-c1ccc(Cl)cc1,0.41,1.9
Cc1ccc(S(=O)(=O)NC(CC(=O)n2nc(C)cc2C)c2ccccc2)cc1 (centres undefined),0.1,-0.48
CC1CCN(C(=O)NC(=O)c2ccc(Cl)cc2)CC1,0.43,1.48
CC(C)=NOC(=O)c1c(C)noc1-c1snnc1C,0.19,-0.01
COc1ccccc1N(CC(=O)NCCSc1ccccc1)S(C)(=O)=O,0.93,0.29
O=C(NCCS(=O)(=O)N1CCN(c2ccccc2F)CC1)C1CC(=O)N(c2ccccc2)C1 (centres undefined),1.77,-0.01
O=C(NNC(=O)c1cc2cc3ccccc3nc2s1)c1cccc(C(F)(F)F)c1,0.05,1.2
O=c1[nH]c(NCc2ccccc2)nc2c1CCC2,0.47,-1.14

# Compound activity (PubChem BioAssay)

# Not all compounds are listed (hit frequency here may not be typical).
